# PABP polyA inh: PABP poly(A) RNA binding inhibitors, primary screen, biochemical, fluorescence polarization, uHTS; Polyadenylate-binding protein 1 (Homo sapiens), P11940; inhibition, % at 35 µM; actives 1% (n = 290,000);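 active = 50% or more with normal probe brightness, or confirmed in later tests; inconclusive = above 50% with abnormal brightness, or retests that disagree; inactive = below 50% or failed in later tests; about a fifth of its hits are not listed in these tables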;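 note: calls also rest on retests at 20 µM and on dose response follow-up; controls were probe without protein and protein plus probe with vehicle; some compounds called inactive have numbers as strong as hits; many hits fall short of the cut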
# MT1-MMP act inh: blockers of MT1-MMP proenzyme processing, primary screen, HT1080 RFP-PRO-GFP cells, GFP/RFP fluorescence; GFP/RFP ratio change, % at 20 µM; GFP/RFP ratio fluorescence, overnight; percent of plate control window, DMSO zero; AID 651647, 2012; actives 0.061% (n = 360,000);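 active = GFP/RFP ratio change of at least 30% with cell ATP level not reduced by more than half and red fluorescence within 50% of control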; note: strong numbers were not always called active
#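 Assay system – RFP-PRO-GFP reporter HT1080 cells · Compound dosing – single dose of 20 µM compound, 1% DMSO final · Incubation – overnight compound exposure at 37 °C · Measure – GFP/RFP fluorescence ratio · Benchmarks – DMSO wells and RFP-L50D-GFP cells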
# Env fusion inh: inhibitors of HIV-1 Env-driven cell-cell fusion, primary screen, HeLa-JRFL effector, CEM21 target cells, luciferase | actives 1.1% (n = 360,000) | inhibition, % at 12.3 µM;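 active = mean replicate inhibition score of at least 50 and every replicate individually at or above 50; inconclusive = only one of the two criteria met; inactive = mean below 50 and not all replicates reaching 50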;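 note: 0% = plate neutral controls and 100% = maraviroc near 300 nM; one replicate is shown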
# CSC inhib: cancer stem cell viability inhibitors, primary screen, luminescence; inhibition, % at 7.5 µM; AID 2717, 2010; cancer stem cell-like cells viability; actives 1.1% (n = 300,000);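 active = mean at 75% or more and at least half the replicates too; inconclusive = mean and replicates disagree; tested in HMLE shEcad cells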;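 note: 0% = median of negative and 100% = median of positive control wells; the first replicate is given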
# eIF4H FP inh: human eIF4H binding inhibitors, primary screen, translation initiation inhibitor project, biochemical, uHTS, fluorescence polarization; Eukaryotic translation initiation factor 4H (Homo sapiens), Q15056; eIF4H fluorescence polarization binding assay; inhibition, % at 35 µM; actives 0.94% (n = 290,000);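 active = 50% or more with normal probe brightness, or confirmed in later tests; inconclusive = above 50% with abnormal brightness, or retests that disagree; inactive = below 50% or failed in later tests; about a fifth of its hits are not listed in these tables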;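 note: calls also rest on retests at 20 µM and on dose response follow-up; 0% = protein and probe with vehicle and 100% = probe without protein; strong numbers were not always called active; many hits fall short of the cut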
# Yeast UUG start: modulators of yeast start codon fidelity, primary screen, whole organism, S. cerevisiae, single point, plate reader; S. cerevisiae UUG-firefly luciferase reporter, luminescence/redox ratio; activity score, % at 18.7 µM; actives 0.13% (n = 350,000); AID 602363, 2012;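 active = replicate mean at a twofold rise or more, about +100% in these data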;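 note: firefly luciferase made from a UUG start codon reports start codon fidelity; reporter light over untreated wells divided by growth signal over untreated wells; some hits fall short of that in this replicate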
# Rce1 inhib: yeast Rce1p protease inhibitors, primary screen, biochemical, fluorescence, cell-free homogeneous | CAAX prenyl protease 2 (Saccharomyces cerevisiae (strain ATCC 204508 / S288c)), Q03530 | yeast membranes, quenched prenylated peptide cleavage fluorescence | calls only | actives 0.27% (n = 290,000);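 active = fall in fluorescence gain of 50% or more versus controls, with final raw signal at or below 3038400; inconclusive = same 50% fall but final raw signal above 3038400; inactive = fall in fluorescence gain under 50%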;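 note: plate controls were neutral control wells for no effect and wells lacking membranes for full effect; tested at 10 µM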
# Target sequence (Q03530 whole entry, looked up): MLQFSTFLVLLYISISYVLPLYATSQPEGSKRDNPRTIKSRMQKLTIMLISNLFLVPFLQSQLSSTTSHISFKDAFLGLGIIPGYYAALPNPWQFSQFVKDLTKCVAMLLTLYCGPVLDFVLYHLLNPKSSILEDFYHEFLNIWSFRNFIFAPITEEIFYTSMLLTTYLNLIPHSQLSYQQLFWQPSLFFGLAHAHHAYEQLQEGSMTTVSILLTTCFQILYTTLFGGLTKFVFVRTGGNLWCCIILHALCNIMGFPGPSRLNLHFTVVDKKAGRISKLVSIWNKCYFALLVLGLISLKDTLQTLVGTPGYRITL
# eIF4H FP inh retest: also measured in eIF4H FP inh; calls as there; inhibition, %; compound at 20 µM; confirmation average;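 mean of two retest wells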
# PABP polyA inh retest: further read-out of PABP polyA inh, marked with its call; inhibition, %; compound at 20 µM; confirmation repeats;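 mean of two retest wells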
# MT1-MMP act inh RFP: second read-out of MT1-MMP act inh, no call of its own (marks repeat the call); RFP signal change, %; measured here: RFP expression control read;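 0 = vehicle wells; hits needed this value within 50% of zero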
# Active calls of the source: *; i = inactive; ? = inconclusive; . = not tested or not shown.
SMILES,PABP polyA inh,MT1-MMP act inh,MT1-MMP act inh RFP,Env fusion inh,CSC inhib,eIF4H FP inh,Yeast UUG start,Rce1 inhib,others
O=C(O)C(Cc1ccccc1)N1C(=O)c2cccc3cccc(c23)C1=O (stereo unspecified),7,0,5,10,-4,-4,.,i,
COc1ccc(C2=Nn3c(nnc3-c3cccnc3)SC2)cc1,-11,10,1,-28,.,0,3,.,
Cc1ccc(S(=O)(=O)NCC(C)n2nc(C)cc2C)cc1 (stereo unspecified),2,-1,-1,8,-6,-10,-9,i,
O=C(NC(=S)Nc1ccccc1N1CCN(C(=O)c2ccccc2)CC1)c1ccccc1F,-2,-9,-4,58*,14,-2,-12,i,
O=C(O)CCN1CC2([N+](=O)[O-])CC=C(OCCO)C([N+](=O)[O-])(C1)C2 (stereo unspecified),-6,-1,1,-11,9,-1,-23,i,
Cc1onc(-c2ccccc2)c1-c1ccnc(N)n1,0,-3,-3,26,-12,-3,.,i,
Cc1ccc(S(=O)(=O)Nc2ccccc2C(=O)Nc2sccc2C(=O)NN(C)C)cc1,4,2,0,14,-5,-5,-2,i,
Cc1ccc(C)c(NC(=O)C(=O)NCc2ccccn2)c1,10,3,3,4,13,4,-9,i,
O=C(O)c1ccc(CSc2ccccn2)cc1,-8,3,7,-15,.,4,.,i,
CN(C)c1cccc(NC(=O)C2Cc3c(-c4cccnc4)ccnc3O2)c1 (stereo unspecified),.,0,-1,-9,.,.,2,.,
COc1ccccc1S(=O)(=O)NCc1ccc(C(=O)NC(C)c2ccccn2)cc1 (stereo unspecified),.,-5,1,3,-2,.,-27,.,
Cc1ccc2[nH]cc(S(=O)(=O)c3ccc(C(C)C)cc3)c(=O)c2c1,6,-2,-1,2,10,-1,-15,i,
CN(C)c1cccc(C(=O)OCC(=O)NC2CCCC2)c1,-2,2,4,-5,.,-10,-13,i,
COc1ccc(OC)c(S(=O)(=O)NC(C)c2ccc(-n3ccnc3)cc2)c1 (stereo unspecified),.,0,-1,.,-10,.,-21,.,
CCOC(=O)C1CCN(S(=O)(=O)c2ccc(CN3C(=O)c4cccnc4C3=O)cc2)CC1,1,-2,2,-6,15,-11,.,i,
C=CCn1c(SCC(=O)O)nnc1-c1ccc(C(C)(C)C)cc1,10,0,1,.,2,-7,-27,i,
C=CCn1c(NCCO)nc2sc3c(c2c1=O)CCC3,12,3,6,-6,-8,1,-4,i,
Cc1ccccc1CN1CCC(C(=O)Nc2ccc(Oc3cccnc3)cc2)CC1,2,1,-3,14,-7,-4,-7,i,
CCOC(=O)Cn1nnc(-c2ccc(OCC(C)C)cc2)n1,-6,4,5,20,-19,3,-22,i,
CCNc1nc(NCC)nc(SCCOc2ccc(C)cc2)n1,-1,-2,-7,28,.,-1,.,i,

# The list goes on (three carried over from the part before).
SMILES,PABP polyA inh,MT1-MMP act inh,MT1-MMP act inh RFP,Env fusion inh,CSC inhib,eIF4H FP inh,Yeast UUG start,Rce1 inhib,others
Cc1ccccc1CN1CCC(C(=O)Nc2ccc(Oc3cccnc3)cc2)CC1,2,1,-3,14,-7,-4,-7,i,
CCOC(=O)Cn1nnc(-c2ccc(OCC(C)C)cc2)n1,-6,4,5,20,-19,3,-22,i,
CCNc1nc(NCC)nc(SCCOc2ccc(C)cc2)n1,-1,-2,-7,28,.,-1,.,i,
O=C(CN1C(=O)CC(c2ccccc2)=Nc2ccccc21)NC1CCCCC1,-7,-2,0,-43,1,-13,-10,i,
Cc1cccc(NS(=O)(=O)c2ccc(C(=O)NCCCN3CCCC3=O)cc2)c1C,.,-2,-10,50,1,.,.,i,
O=[N+]([O-])c1ccc(P(=O)(Cc2ccccc2)c2ccccc2O)cc1 (stereo unspecified),8,6,5,-11,-12,1,-17,i,
Cc1cccc(NC(=O)CSc2nc(C3CC3)nc3ccccc23)c1,73,0,-1,2,14,-1,-15,i,eIF4H FP inh retest=26;PABP polyA inh retest=8
O=C(CCCCCNc1nc(=S)[nH]c2ccccc12)NCc1ccccc1Cl,4,.,.,8,-1,-11,.,i,
COc1cc(CC(=O)NCCc2ccc(S(N)(=O)=O)cc2)cc(OC)c1OC,1,3,1,-73,9,-2,3,i,
c1ccc(CSc2nnc(-c3ccncc3)o2)cc1,-4,-9,-4,10,-11,-2,-5,.,
CSC1=C(C#N)C(c2cccc(Br)c2)CC(=O)N1 (stereo unspecified),3,-1,-1,-41,.,2,-11,i,
C/C(O)=c1/ccc2cccc3nc(C)nc1c23,?,-98,8,-150,.,?,-6,i,
O=C(COc1ccc(Cl)cc1)N1CCN(c2ccc([N+](=O)[O-])c(N3CCOCC3)c2)CC1,4,22,-7,.,5,-2,.,i,
O=C(CSc1n[nH]c(-c2ccco2)n1)Nc1ccccc1Cl,0,1,0,11,-12,-3,.,i,
CCOC(=O)C1=C(c2ccccc2)OC(N)=C(C#N)C1C(C)C (stereo unspecified),-8,13,2,.,-9,-1,-7,i,
COc1ccc(CCN2C(=O)C3C4C=CC(C3C2=O)C2C(=O)N(CCc3ccc(OC)c(OC)c3)C(=O)C42)cc1OC (stereo unspecified),3,-4,-22,.,-1,-13,11,i,
Cc1cc(C)c(OCCCCCNCCO)c(C)c1,-10,-6,2,.,55,-4,-11,i,
O=C(Nc1nncs1)c1ccc(N2C(=O)C3C4C=CC(C4)C3C2=O)cc1 (stereo unspecified),2,1,0,-4,10,-8,-14,i,
O=C(c1ccc(Cl)c([N+](=O)[O-])c1)N(Cc1ccc(F)cc1)C1CCS(=O)(=O)C1 (stereo unspecified),-12,-1,1,-5,0,12,.,i,
CN(c1ccccc1)S(=O)(=O)c1ccc(C(=O)Nc2nnc(-c3ccco3)o2)cc1,-6,-2,-3,5,67,24,-31,i,
COc1ccc(C(CNC(=O)COc2ccc(Br)cc2F)N2CCCC2)cc1 (stereo unspecified),6,3,-2,14,2,-15,-10,i,
C#CCOCCOCCOCCNc1nc(N2CCN(C(=O)[C@H]([C@@H](C)CC)n3cc(CCCN=C(N)N)nn3)CC2)nc(N2CCN(C(=O)[C@H](CCCCN)n3cc(CCCC)nn3)CC2)n1,-7,1,9,13,-7,-4,14,i,
Cn1ccc(C(=O)NC(=S)N2CCSCC2)n1,-5,-2,1,1,-1,-13,.,i,
Cc1cccc(Cc2nnc(NC(=O)c3cccc(S(=O)(=O)N4CCOCC4)c3)s2)c1,-2,4,-9,.,-6,-6,-6,i,
COCC1CCN(Cc2nc(-c3ccc4c(c3)OCO4)no2)C1 (stereo unspecified),3,-1,-3,2,-7,4,.,i,
O=C(NCCc1cn2ccccc2n1)c1cc(COc2ccc3ncccc3c2)on1,-7,-9,-30,6,4,-2,-10,i,
O=C(NCc1ccc(Cl)cc1)c1ccc(Br)o1,-11,-3,1,9,-3,5,-20,i,
CC(C)OCCCNC(=O)C(NS(=O)(=O)c1ccc2c(c1)c(=O)n(C)c(=O)n2C)c1ccccc1 (stereo unspecified),7,.,.,.,-10,7,.,i,
CC(C)(C)C(=O)N(CCN(C(=O)C(C)(C)C)c1ccccc1)c1ccccc1,7,-7,-6,0,30,4,-11,i,
Cc1ccc2nc(-c3ccccn3)c(Nc3ccccc3C)n2c1,18,-6,-18,28,?,0,-29,i,
Nc1nnc(-c2cc3ccccc3oc2=O)s1,-8,-5,-6,.,-9,7,-1,i,
COc1ccc(C2C(C(=O)c3cccs3)=C(O)C(=O)N2c2nncs2)cc1 (stereo unspecified),?,4,1,-41,-6,?,-18,i,
CC1(C)C(c2cccs2)=[N+]([O-])C2(CCCCC/C2=N\NC(N)=S)N1O (stereo unspecified),-3,8,3,.,-14,3,-16,i,
COC(=O)c1ccc(-c2noc(CN3CCCCC3c3nccn3C)n2)cc1 (stereo unspecified),-5,2,-1,5,0,0,-19,i,
C=CCn1c(NC(=O)c2ccc(C)cc2)c(C#N)sc1=N,37,5,-1,.,-3,3,-17,.,
COc1ccc(S(=O)(=O)N2CCCCC2)cc1NC(=O)c1cccc(S(=O)(=O)N2CCOCC2)c1,.,-1,-2,8,.,.,-12,.,
Cn1c2c(c(=O)n(C)c1=O)C(CC(=O)Nc1ccc(F)cc1)C(=O)N2 (stereo unspecified),1,3,5,1,-5,-4,.,i,
O=C(COC(=O)Cc1ccccc1F)Nc1ccc2[nH]c(=O)[nH]c2c1,.,5,-1,.,9,.,.,i,
CSc1nsc(SC)c1NC(=O)OCc1ccccc1,-14,4,4,-15,7,-5,.,i,
O=C1C(=C(c2ccccc2)c2ccccc2)Nc2ccccc21,2,11,-1,.,.,-4,-25,i,
CCc1c(C)nc(SCC(=O)N2CC(C)OC(C)C2)[nH]c1=O (stereo unspecified),.,3,6,-11,-11,.,.,i,
COC(=O)c1cc(S(=O)(=O)NC2CCC(C)CC2)cn1C (stereo unspecified),.,2,4,-14,-8,.,.,i,
CN(CC(=O)Nc1ccccc1)CC(=O)Nc1ccccc1Cl,1,-4,-1,-8,-15,-1,-8,i,
Oc1ccc(-c2csc(Nc3ccc4c(c3)OCO4)n2)c(O)c1,.,3,1,-176,.,.,-26,.,
CC(C)OC(=O)CN1C(=O)C(C)(C)Oc2ccc(C(=O)NC3CC3)cc21,0,3,4,6,-14,-5,-15,i,
COCC(=O)N(Cc1ccc(OC)cc1)Cc1nc2ccccc2c(=O)[nH]1,0,2,9,.,-2,-5,-3,i,
CCCN1CNC(=S)N(CCc2ccccc2)C1,0,3,7,.,-2,-6,.,i,
O=C(CSc1nc(O)c(Cc2ccccc2F)c(=O)[nH]1)N1CCCCCC1,9,-4,0,-12,-11,-5,-5,i,
CN(C)S(=O)(=O)c1ccc(C(=O)N2CCOCC2)cc1,-5,3,3,3,-14,2,-20,i,
O=C(CSc1nc(N2CCCCC2)nc(N2CCCCC2)n1)c1ccccc1,-6,-9,-13,.,60,-7,-17,i,
Cc1ccc(C(=O)N2NC(c3ccc(F)cc3)C3C(=O)N(c4ccc(C)cc4)C(=O)C32)cc1 (stereo unspecified),-5,-1,6,-79,-14,-4,-13,i,
COC(=O)Cc1ccc(NC(=O)C(c2ccccc2)c2ccccc2)cc1,-3,-1,4,-3,-3,3,.,i,
O=C1/C(=C\c2ccc(O)c(O)c2)SC(=S)N1Cc1ccccc1,-5,-38,60,-6,104*,3,0,i,

# The listing continues.
SMILES,PABP polyA inh,MT1-MMP act inh,MT1-MMP act inh RFP,Env fusion inh,CSC inhib,eIF4H FP inh,Yeast UUG start,Rce1 inhib,others
CCc1ccc(-c2cc(C)no2)cc1S(=O)(=O)NCc1ccc(OC)c(OC)c1,2,7,-5,-1,-1,-11,6,i,
O=C1c2ccc3c4c(ccc(c24)C(=O)N1c1cccc(O)c1)CC3,-14,6,1,24,2,42,-18,i,
Cc1ccc(NC(=O)c2cc(S(=O)(=O)N3CCCCC3)cs2)cc1,-3,0,-21,.,-1,-8,-14,i,
O=C(COC(=O)c1cnccn1)c1ccc(Cl)cc1,1,4,4,-3,-8,16,.,i,
COc1ccc(OCc2nnc(SCC(=O)N3C(C)CCCC3C)o2)cc1 (stereo unspecified),-1,-3,-5,15,-11,-6,4,i,
